# Rce1 inhib: yeast Rce1p protease inhibitors, primary screen, biochemical, fluorescence, cell-free homogeneous. CAAX prenyl protease 2 (Saccharomyces cerevisiae (strain ATCC 204508 / S288c)), Q03530. AID 2563, 2010. yeast membranes, quenched prenylated peptide cleavage fluorescence. 290,000 compounds, 0.27% hits. calls only;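 active = fall in fluorescence gain of 50% or more versus controls, with final raw signal at or below 3038400; inconclusive = same 50% fall but final raw signal above 3038400; inactive = fall in fluorescence gain under 50%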;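 also: plate controls were neutral control wells for no effect and wells lacking membranes for full effect; tested at 10 µM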
# Target sequence (Q03530 whole entry, looked up): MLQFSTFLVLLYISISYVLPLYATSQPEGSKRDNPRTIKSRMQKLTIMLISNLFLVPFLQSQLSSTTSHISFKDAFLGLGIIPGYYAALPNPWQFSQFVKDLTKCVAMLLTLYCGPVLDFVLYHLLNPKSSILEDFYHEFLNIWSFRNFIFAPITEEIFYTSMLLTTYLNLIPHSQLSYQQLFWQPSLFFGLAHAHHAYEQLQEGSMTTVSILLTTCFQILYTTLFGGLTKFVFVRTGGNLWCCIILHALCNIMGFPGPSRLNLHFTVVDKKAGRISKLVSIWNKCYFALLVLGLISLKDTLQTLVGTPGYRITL
# CSC inhib: cancer stem cell viability inhibitors, primary screen, luminescence. inhibition, % at 7.5 µM. cancer stem cell-like cells viability. 300,000 compounds, 1.1% hits;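 active = mean at 75% or more and at least half the replicates too; inconclusive = mean and replicates disagree; tested in HMLE shEcad cells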;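 also: 0% = median of negative and 100% = median of positive control wells; the first replicate is given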
# Env fusion inh: inhibitors of HIV-1 Env-driven cell-cell fusion, primary screen, HeLa-JRFL effector, CEM21 target cells, luciferase; inhibition, % at 12.3 µM; 360,000 compounds, 1.1% hits; AID 651610, 2012;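 active = mean replicate inhibition score of at least 50 and every replicate individually at or above 50; inconclusive = only one of the two criteria met; inactive = mean below 50 and not all replicates reaching 50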;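 also: 0% = plate neutral controls and 100% = maraviroc near 300 nM; one replicate is shown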
# MT1-MMP act inh: blockers of MT1-MMP proenzyme processing, primary screen, HT1080 RFP-PRO-GFP cells, GFP/RFP fluorescence | 360,000 compounds, 0.061% hits | GFP/RFP ratio fluorescence, overnight; percent of plate control window, DMSO zero | GFP/RFP ratio change, % at 20 µM | Matrix metalloproteinase-14 (Homo sapiens), P50281 | AID 651647, 2012;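 active = GFP/RFP ratio change of at least 30% with cell ATP level not reduced by more than half and red fluorescence within 50% of control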; also: strong numbers were not always called active
#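 Assay system: HT1080 cells carrying an RFP-PRO-GFP reporter | Dosing: Single dose of 20 µM compound, 1% DMSO final | Incubation: Cells overnight before dosing, compound overnight, 37 °C, 5% CO2 | Evaluation: GFP/RFP fluorescence ratio | Control set: DMSO and RFP-L50D-GFP cell wells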
# PABP polyA inh: PABP poly(A) RNA binding inhibitors, primary screen, biochemical, fluorescence polarization, uHTS | inhibition, % at 35 µM | 290,000 compounds, 1% hits;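 active = 50% or more with normal probe brightness, or confirmed in later tests; inconclusive = above 50% with abnormal brightness, or retests that disagree; inactive = below 50% or failed in later tests; about a fifth of its hits are not listed in these tables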;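 also: calls also rest on retests at 20 µM and on dose response follow-up; controls were probe without protein and protein plus probe with vehicle; some compounds called inactive have numbers as strong as hits; many hits fall short of the cut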
# UUG fidelity: modulators of yeast start codon fidelity, primary screen, whole organism, S. cerevisiae, single point, plate reader; S. cerevisiae UUG-firefly luciferase reporter, luminescence/redox ratio; activity score, % at 18.7 µM; 350,000 compounds, 0.13% hits; AID 602363, 2012;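 active = replicate mean at a twofold rise or more, about +100% in these data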;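 also: firefly luciferase made from a UUG start codon reports start codon fidelity; reporter light over untreated wells divided by growth signal over untreated wells; some hits fall short of that in this replicate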
# eIF4H inh: human eIF4H binding inhibitors, primary screen, translation initiation inhibitor project, biochemical, uHTS, fluorescence polarization; eIF4H fluorescence polarization binding assay; inhibition, % at 35 µM; AID 2012, 2009; 290,000 compounds, 0.94% hits; Eukaryotic translation initiation factor 4H (Homo sapiens), Q15056;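 active = 50% or more with normal probe brightness, or confirmed in later tests; inconclusive = above 50% with abnormal brightness, or retests that disagree; inactive = below 50% or failed in later tests; about a fifth of its hits are not listed in these tables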;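 also: calls also rest on retests at 20 µM and on dose response follow-up; 0% = protein and probe with vehicle and 100% = probe without protein; strong numbers were not always called active; many hits fall short of the cut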
# eIF4H inh retest: second read-out of eIF4H inh, no call of its own (marks repeat the call); inhibition, %; compound at 20 µM; confirmation average;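 mean of two retest wells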
# PABP polyA inh retest: also measured in PABP polyA inh; calls as there; inhibition, %; compound at 20 µM; confirmation repeats;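 mean of two retest wells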
# MT1-MMP act inh RFP: further read-out of MT1-MMP act inh, marked with its call; RFP signal change, %; measured here: RFP expression control read;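 0 = vehicle wells; hits needed this value within 50% of zero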
# Numbers without * were called inactive; i = inactive; ? = inconclusive; · = not tested or not shown; + = active, no number. The list is partial, so the mix of outcomes need not match the whole.
SMILES,Rce1 inhib,CSC inhib,Env fusion inh,MT1-MMP act inh,MT1-MMP act inh RFP,PABP polyA inh,UUG fidelity,eIF4H inh,others
COCCSc1nnc(NC(=O)c2ccc([N+](=O)[O-])cc2)s1,i,4,5,1,-4,0,·,-6,
O=C(NC(=S)Nn1cnc2c(cnn2-c2ccccc2)c1=O)c1ccc(Cl)cc1,i,6,-15,2,3,23,·,-4,
CC(C)c1ccccc1-n1c(-c2cccnc2)n[nH]c1=S,i,-17,-13,3,1,0,·,-13,
Cc1ccc(/C=C/C(=O)OCC(=O)NC(=O)NCc2ccco2)cc1,·,5,·,-5,2,·,-7,·,
Cc1ccc(C(C(=O)NCc2ccccc2)N(C(=O)c2csnn2)c2cccc3ccccc23)o1 (stereo not drawn),i,-13,-112,-5,-11,-8,-2,0,
Cc1ccc2c(CC(=O)Nc3c(C)n(C)n(-c4ccccc4)c3=O)coc2c1,i,-3,·,-1,2,3,-13,0,
CCCCn1c(N)c(N(Cc2ccccc2OC)C(=O)COc2cc(C)ccc2Cl)c(=O)[nH]c1=O,i,·,-4,7,0,·,·,·,
C#CCOCCOCCOCCNc1nc(N2CCN(C(=O)CCCCCCCCCCNC(=O)[C@H](CCCCN)n3cc(CCCC(=O)O)nn3)CC2)nc(N2CCN(C(=O)CCCCCCCCCCNC(=O)[C@H](CCCCN)n3cc(CCCC(=O)O)nn3)CC2)n1,i,-12,·,4,5,·,-19,·,
Cc1ccc2cccc(SCC(=O)NCC#N)c2n1,i,3,·,0,3,-4,·,-4,
CCc1ccc(NC(=O)C(=O)N/N=C(\C)CC(=O)Nc2ccccn2)cc1,i,-3,·,9,6,12*,-9,98,eIF4H inh retest=32;PABP polyA inh retest=98*
CN(C(=S)NC(=O)C12CC3CC(CC(C3)C1)C2)c1ccc(O)cc1,·,22,-15,7,6,·,-7,·,
COC(CNC(=O)c1ccc2c(c1)ncn2-c1cccc(C)c1)OC,i,3,-6,4,4,3,-35,-12,
COc1cccc(/C=C/c2nc(C#N)c(NCC(C)C)o2)c1,i,128*,1,-2,-10,-2,-20,-5,
COc1ccc(CCNC(=O)CSC2=NS(=O)(=O)c3cc(F)ccc3N2)cc1OC,·,·,7,0,7,·,-3,·,
CCCNC(=O)c1c(CSc2ccc(Cl)cc2)noc1C(=O)NCc1ccccc1,i,4,-13,-2,-3,·,-16,·,
O=C(NC(=S)NC1CCSC1=O)c1ccccc1 (stereo not drawn),i,-15,-10,-8,0,-3,·,-6,
COc1cccc(OC)c1OCCCCN1CCCCC1,i,-4,4,-4,-5,5,-19,5,
O=C1COc2ccc(S(=O)(=O)N3CCN(c4ccccc4)CC3)cc2N1,i,-4,-1,1,-1,5,-21,-3,
CC(Sc1nnc(COc2ccc(Cl)cc2)n1Cc1ccccc1)C(=O)O (stereo not drawn),i,-11,6,3,2,-4,·,-6,
N/C(=N\OC(=O)COc1ccccc1Cl)c1ccc(Cl)cc1,i,24,·,1,2,-8,-19,-6,
Cc1cc(NC(=O)CCCN2C(=O)c3cccnc3C2=O)no1,i,9,·,-1,-1,10,-17,6,
COc1ccc(N(C(C)=O)c2nc(C)cc(C)c2C#N)c(OC)c1,i,-19,-2,1,3,0,·,-7,
c1ccc(-c2nccnc2-c2ccccc2)cc1,i,-10,1,-2,1,2,·,0,
CC(=O)Nc1cccc(NC=C(C#N)C#N)c1,i,4,27,2,1,4,·,4,
COC(=O)c1cc(NS(=O)(=O)c2ccc(N3CCOCC3)c([N+](=O)[O-])c2)cc(C(=O)OC)c1,i,-5,15,3,8,-4,·,3,

# Gathered by group: the entries above with two or more sulfur atoms.
SMILES,Rce1 inhib,CSC inhib,Env fusion inh,MT1-MMP act inh,MT1-MMP act inh RFP,PABP polyA inh,UUG fidelity,eIF4H inh,others
COCCSc1nnc(NC(=O)c2ccc([N+](=O)[O-])cc2)s1,i,4,5,1,-4,0,·,-6,
COc1ccc(CCNC(=O)CSC2=NS(=O)(=O)c3cc(F)ccc3N2)cc1OC,·,·,7,0,7,·,-3,·,
O=C(NC(=S)NC1CCSC1=O)c1ccccc1 (stereo not drawn),i,-15,-10,-8,0,-3,·,-6,

# Remaining list, next part:
SMILES,Rce1 inhib,CSC inhib,Env fusion inh,MT1-MMP act inh,MT1-MMP act inh RFP,PABP polyA inh,UUG fidelity,eIF4H inh,others
O=C(C[C@@H]1C/C=C/CC[C@H](Cc2ccc(F)cc2)C(=O)OCCNC1=O)N[C@H](CO)Cc1ccccc1,·,-3,-23,0,-9,·,3,·,
CC(=O)c1ccc(OCC(O)CN2C(C)(C)CC(O)CC2(C)C)cc1 (stereo not drawn),i,3,-13,-3,3,-3,-20,-21,
CCN(C(=O)CSc1nc2ccccc2n1C)C1CCS(=O)(=O)C1 (stereo not drawn),·,-10,-4,1,1,·,-12,·,
CCOC(=O)/C(Sc1nc(-c2ccccc2)cc(-c2ccccc2)c1C#N)=C(\C)O,i,15,8,-3,-1,-4,·,-6,
CCc1cccc(NC(=O)Cn2cc(C=O)c3ccccc32)c1,i,1,3,-2,-29,-3,-14,0,
O=C(CSCc1ccc(C(=O)O)cc1)Nc1ccccc1,i,-16,5,-6,3,5,·,-4,
CCOc1ccc(C(=O)NC(=S)Nc2ccccc2N2CCC(C)CC2)cc1[N+](=O)[O-],i,6,·,-13,-6,3,-19,4,
COc1ccccc1N(CC(=O)NC(C)(C)C)C(=O)CCC(=O)Nc1ccccn1,i,-10,1,-1,8,-2,-19,-6,
CCC1CCCCN1CCCNC(=O)Cn1cnc2sc(C)c(S(=O)(=O)N3CCC(C)CC3)c2c1=O (stereo not drawn),i,-4,16,2,4,1,-14,9,
CCCCC1CCCOC(C(=O)NCCNCCO)(C(F)(F)F)C1 (stereo not drawn),i,-8,-11,1,5,·,-1,·,
c1cnc2c(-c3ccc4nccn4c3)cccc2c1,·,·,2,0,-1,·,-10,·,
COc1ccc(/C=N\NC(=O)c2ccccc2[N+](=O)[O-])cc1COc1c(F)c(F)c(F)c(F)c1F,i,32,2,-1,-6,4,-12,-10,
O=C(CSc1ccccn1)N/N=C/C=C/c1ccccc1,i,2,15,-2,0,?,·,-7,
Cc1cc(C)cc(NC(=O)CCn2c(=O)c3cccn3c3ccccc32)c1,i,-3,24,-7,-13,-3,-14,-18,
CCOC(=O)c1nnn(-c2nonc2N)c1CNc1ccc(C)c(Br)c1,i,18,-7,-9,-6,2,-18,-6,
Nc1ccc(S(=O)(=O)NCc2ccccn2)cc1,i,1,3,3,5,3,-14,-5,
CS(=O)(=O)c1ccc(Cl)c(NC(=O)COC(=O)c2c(Cl)cccc2Cl)c1,i,-19,24,1,1,-15,-4,-12,
Cc1cccc(NC(=O)CNC(=O)c2ccco2)n1,i,-6,5,5,1,·,-17,·,
CCCCSc1nc2c(c(=O)[nH]1)CCC2,i,-2,·,0,6,-10,-7,-8,
CC(=O)Nc1ccc(NC(=O)N2CCOCC2)cc1,·,·,1,3,3,·,1,·,
COc1ccc(C(=O)N/N=C(/C)c2cccc(NC(=O)c3ccncc3)c2)cc1OC,i,-10,-5,0,0,1,-23,5,
Cc1nn(-c2ccccc2)c(C)c1NC(=O)COC(=O)c1ccccc1OC(F)F,i,-5,4,-2,1,9,-17,-11,
Cc1cc(C)nc(N2CCCC(C(=O)NCc3cccc(C(F)(F)F)c3)C2)n1 (stereo not drawn),i,-4,-41,1,0,-1,-8,-4,
Cn1nc(C(=O)Nc2cccnc2)c2ccccc2c1=O,i,-12,-44,5,6,6,9,8,
CCn1c(COc2c(C)cccc2C)nnc1SCC(=O)N1CCN(c2ccccc2)CC1,i,-2,·,-2,-25,7,12,-3,
SMILES,Rce1 inhib,CSC inhib,Env fusion inh,MT1-MMP act inh,MT1-MMP act inh RFP,PABP polyA inh,UUG fidelity,eIF4H inh,others
Cc1cc(C(=O)OCC(=O)Nc2ccc(F)c(F)c2F)c(C)o1,i,-9,5,1,1,6,·,-6,
COCCCN1CC(=O)N2C(c3ccccc3)c3[nH]c4ccccc4c3C[C@H]2C1=O (stereo partly drawn),i,-4,0,0,0,-10,4,-2,
CN(C(=O)COC(=O)CSc1ccccc1)c1c(N)n(Cc2ccccc2)c(=O)[nH]c1=O,·,·,-6,-5,0,·,-18,·,
O=C(COc1ccc(Cl)cc1)NCc1nnc(SCC(=O)NC2CCCCC2)o1,i,6,14,9,3,-3,-18,-5,
Cc1cccc(NC(=O)CSCC(=O)Nc2cccc(S(=O)(=O)N3CCCCCC3)c2)c1,i,-10,·,-3,-9,·,·,·,
COc1ccc2nc(C3CCCCC3)c3c(c2c1)CCC3,i,46,8,5,3,·,-9,·,
Cc1cccc(C2c3[nH]c4ccccc4c3CCN2C(=O)c2cc(CC(C)C)nc(C)n2)n1 (stereo not drawn),i,-4,6,0,-2,3,·,-14,
Cc1c(NC(=O)c2cccc(NC(=O)Cc3ccccc3Cl)c2)c(=O)n(-c2ccccc2)n1C,·,·,12,-3,0,·,-7,·,
Cc1nn(Cc2ccc(Cl)cc2)c(=O)n1N(C)c1ncc(C(F)(F)F)cc1Cl,i,10,·,-2,-1,-2,-2,-3,
CCOC(=O)c1ccc(NC(=O)CCN2C(=O)C3CC=CCC3C2=O)cc1 (stereo not drawn),·,·,16,6,0,·,-16,·,
CCOC(=O)CCCNC(=O)COC(=O)/C=C/c1ccc2c(c1)OCO2,i,-10,9,-6,-1,19,·,-3,
O=C(O)c1ccc(Cl)c(S(=O)(=O)NC(Cc2ccccc2)C(=O)O)c1 (stereo not drawn),i,3,-7,-4,-2,-1,-18,-6,
COc1ccc2[nH]c3c(c2c1)CCn1c-3nc2ccccc2c1=O,i,·,·,4,2,11,-13,7,
CC(=O)NN1C(=O)c2ccccc2NC1c1ccoc1 (stereo not drawn),+,-7,-1,-3,1,-6,-8,5,
CC1c2nc3ccccc3n2C(CC(=O)NCc2ccccn2)C(=O)N1Cc1ccccc1 (stereo not drawn),i,-3,-59,-1,-2,5,-28,6,
C/C(=N\NC(=O)c1ccc(Br)cc1)c1ccccc1,i,3,·,3,5,5,·,-6,
O=C(Oc1ccc(N2C(=O)CCC2=O)cc1)c1ccccc1,i,-10,·,-1,2,3,-17,2,
Cc1ccc(C2C3=C(CC(C)(C)CC3=O)N(CCN3CCOCC3)C3=C2C(=O)CC(C)(C)C3)cc1,i,-1,·,-5,0,9,-8,7,
COc1ccc(N2C(=O)CC(SC(C)C)C2=O)cc1 (stereo not drawn),i,2,3,-1,4,7,·,6,
Cc1ccc(CSCC(Nc2ccc(C(=O)O)cc2[N+](=O)[O-])C(=O)O)cc1 (stereo not drawn),i,-13,·,5,11,2,3,2,
COc1cccc(N=Nc2c(N)[nH]n3c(=O)c4c(nc23)CCCC4)c1,i,18,17,16,-5,11,-3,-4,
COc1ccc(C(=O)CN2C(=O)c3ccccc3C2=O)cc1,i,-8,-6,1,0,-2,-32,-4,
